Compound activity from PubChem BioAssay.
Vaccinia Venus = inhibitors of vaccinia virus (Venus reporter); Vaccinia virus Venus reporter expression, fluorescence; Potency, µM (highest dose often 36.5 µM), without a hit: at the highest dose activity change, negative = inhibition, hits mostly inhibitors; 330,000 tested, 0.46% active; AID 720580; active means well fitted inhibition curve with a large enough effect; inconclusive means small, poorly fitted or top-dose-only effect; inactive means no such curve, though single readings can be large or run the other way; tested in A549 cells; further: nearly all actives have a fitted effect of over 30% in size; inactives centre near -10
Vaccinia mCherry = inhibitors of vaccinia virus infection (mCherry reporter signal); Vaccinia virus mCherry reporter infection, fluorescence; about a quarter of the inactives have no number; Potency, µM (titrated, usually from 36.5 µM), for inactives: at the highest dose activity change, negative = inhibition, usual class: inhibitors; 310,000 tested, 0.63% active; active = well fitted inhibition curve with a large enough effect; inconclusive = small, poorly fitted or top-dose-only effect; inactive = no such curve, though single readings can be large or run the other way; tested in A549 cells; further: nearly all actives have a fitted effect of over 35% in size; inactives centre near -10
An asterisk follows results filed as active; i = inactive; u = inconclusive; x = no result given; & = joins results of further samples; [ ] = another dose, or the depositor's remark. On the % scale 0 is the no-effect control and ±100 the full control effect; potency means the concentration at half of the fitted maximal effect. Rows are unselected. About 0.82% of those tested had a hit in this group.

SMILES	Vaccinia Venus	Vaccinia mCherry
O=C(/C=C/c1ccccc1[N+](=O)[O-])NCCc1ccc(F)cc1	-12%	i
COCCNc1nc(-c2ccccc2CO)c2sc(-c3ccccc3)cc2n1	u	-9%
CCC1CCCCN1CCCNC(=O)CSc1nc2nc(C)c(Cc3ccc(C)cc3)c(C)n2n1 (stereo not given)	-13%	-25%
CC(=O)c1ccc(S(=O)(=O)Nc2c(C)nn(C)c2C)cc1	-2%	-11%
Cc1coc2cc3oc(=O)c(CCC(=O)NCCCN4CCOCC4)c(C)c3cc12	-1%	-3%
Cc1ccc(OCCSc2nc3ccc(NC(=O)COc4ccc(F)cc4)cc3s2)cc1	u	-14%
O=C(NC(=S)Nc1cccc2c(O)cccc12)c1cccc(Br)c1	-11%	u
Cc1ccc(-c2cc(C(F)(F)F)n3nc(C(=O)N4CCN5CCCC5C4)cc3n2)cc1 (stereo not given)	-24%	-17%
O=C(NC1CC1)c1[nH]c(C(F)(F)F)nc1-c1ccccc1	-7%	i
O=C(O)CC(CC(=O)Nc1ccc(F)c(Cl)c1)c1ccc(Cl)cc1Cl (stereo not given)	7%	-14%
Cc1cccc(C(=O)Nc2ccc(C(=O)c3ccncc3)cc2)c1	-25%	-13%
CC(C)c1cc(C(=O)N/N=C/c2cccnc2)n[nH]1	-8%	-5%
COc1cc2cc(NC(C)=O)cc(NCc3ccccc3)c2cc1OC	-13%	-19%
CSc1ccccc1C(=O)N1CCC(n2nccc2NC(=O)C(C)(C)C)CC1	-11%	-11%
Cc1nn(-c2ccccc2)c(N)c1Sc1ccccc1[N+](=O)[O-]	-20%	-17%
CN(C)c1cccc(C(=O)NCc2ccccc2)c1	-5%	i
O=S(=O)(Nc1ccc2cn[nH]c2c1)c1ccccc1	-8%	i
COc1ccc(S(=O)(=O)N2CCOC2CNC(=O)C(=O)NCC(C)C)cc1 (stereo not given)	-11%	i
O=[N+]([O-])c1ccc(Sc2n[nH]c(-c3ccco3)n2)nc1	u	-26%
Cc1ccccc1-c1nc(CS(=O)CC(=O)NCCN2CCOCC2)c(C)o1 (stereo not given)	1%	-24%
CCC1=C(OC(=O)N(CC)CC)N2C(=O)OC(=NCC(=O)OC)[C@]2(C)[C@H]2C1=CC[C@H]1C(=O)N(C)C(=O)[C@H]12	-15%	i
N#Cc1ccccc1OCC(=O)Nc1ccc2c(c1)OCCCO2	-5%	10%
C=CCN1C(=O)NC(=O)/C(=C/c2ccc(N(C)C)c(Br)c2)C1=O	-16%	-3%
O=C1c2ccccc2C(Nc2ccc(F)c(Cl)c2)N1Cc1ccco1 (stereo not given)	-16%	-21%
COCCNc1nnc(SCC(=O)NC(=O)c2ccccc2OC)s1	2%	-15%

Following part:
SMILES	Vaccinia Venus	Vaccinia mCherry
COCCNC(=O)CCc1c(C)nc2c(-c3ccc(F)cc3)c(C)nn2c1C	-3%&-13%	-6%
Cc1ccn2c(CN3CCOCC3)c(-c3ccccc3)nc2c1	-7%	i
COc1cc2nc(SCc3ccc(Cl)cc3)n3nc(CCn4nc(C)cc4C)nc3c2cc1OC	-4%	-10%
CCOC(=O)c1cc(-c2ccc(F)cc2)n(CCC(=O)NCCc2ccc(C)cc2)c1C	-15%	-5%
CC1CCN(C(=O)CN2C(=O)NC(C)(c3ccc4ccccc4c3)C2=O)CC1 (stereo not given)	-6%	-18%
O=C(Nc1cccc(Cl)c1)c1nc[nH]c1C(=O)NCCN(CCNC(=O)c1[nH]cnc1C(=O)Nc1cccc(Cl)c1)CCNC(=O)c1[nH]cnc1C(=O)Nc1cccc(Cl)c1	-14%	i
Cc1ccc(N2CCN(C(=O)c3noc4c3COc3ccc(C)cc3-4)CC2)c(C)c1	1%	9%
O=C(c1ccco1)N1CCCN(Cc2nc(-c3ccc4c(c3)OCO4)no2)CC1	10%	7%
Cc1cc(C)c(N2C(=O)CC(Sc3ccccc3N)C2=O)c(C)c1 (stereo not given)	u	u
COc1ccc(CCN(Cc2ccccn2)C(=S)Nc2ccccc2C)cc1OC	-6%	i
Cc1cccc(-c2nc3c(c(SCc4ccccc4Cl)n2)Cc2c(CO)cnc(C)c2O3)c1	-2%	1%
O=C(CN(C(=O)CSc1nnc(COc2ccccc2)o1)c1ccc(F)cc1)NC1CCCC1	-20%	-28%
CCOc1ccc(N(CC(=O)NCCc2ccc(Cl)cc2)S(=O)(=O)c2c(C)[nH]c(=O)[nH]c2=O)cc1	-8%	i
COc1ccc(-c2nn3c(-c4ccc(C)cc4)nnc3c3ccccc23)cc1	-2%	-8%
Cc1ccc(C(=O)c2cc3ccccc3o2)cc1	2%	-10%
CC(=O)c1cccc(NC(=O)C2C3C=CC(C3)C2C(=O)O)c1 (stereo not given)	-9%	i
Cc1ccc2oc(=O)cc(CN3CCOCC3)c2c1	17%	x
COc1ccc(S(=O)(=O)Nc2cccc(-c3ccc4nncn4n3)c2)c(OC)c1	-10%	-22%
CN1CCN(c2ccccc2NC(=O)c2sc3ccccc3c2Cl)CC1	5%	2%
CCN1C(=O)C(CC(=O)Nc2ccc(OC)cc2)N(CCc2ccc(F)cc2)C1=S (stereo not given)	u	u
CN(C(=O)c1ccc(NC(=O)C2CCN(C(=O)OC(C)(C)C)CC2)cc1)C1CCC1	-11%	-23%
O=C(NC1CCCc2c1cnn2-c1ccc(F)cc1F)c1csnn1 (stereo not given)	-19%	i
O=C(CSc1cc(Cl)ccc1Cl)NC1CCCc2ccccc21 (stereo not given)	u	-19%
O=C1CN(c2nc(-c3cccnc3)nc3sc4c(c23)CCCC4)CCN1	u	-28%
COc1cccc(-c2nc(SCC(=O)NC3CCCC3)c(-c3ccc(C)cc3)[nH]2)c1	-7%	-14%

Filtered by structure: the entries above containing bromine.
SMILES	Vaccinia Venus	Vaccinia mCherry
O=C(NC(=S)Nc1cccc2c(O)cccc12)c1cccc(Br)c1	-11%	u
C=CCN1C(=O)NC(=O)/C(=C/c2ccc(N(C)C)c(Br)c2)C1=O	-16%	-3%

A section from the list above, as a working copy:
SMILES	Vaccinia Venus	Vaccinia mCherry
O=C1CN(c2nc(-c3cccnc3)nc3sc4c(c23)CCCC4)CCN1	u	-28%
COc1cccc(-c2nc(SCC(=O)NC3CCCC3)c(-c3ccc(C)cc3)[nH]2)c1	-7%	-14%

Profiles from above. Values in the order: Vaccinia Venus	Vaccinia mCherry
`Cc1ccn2c(CN3CCOCC3)c(-c3ccccc3)nc2c1` across the screens: -7%	i
`CN1CCN(c2ccccc2NC(=O)c2sc3ccccc3c2Cl)CC1` across the screens: 5%	2%
`Cc1ccc2oc(=O)cc(CN3CCOCC3)c2c1` across the screens: 17%	x

Additional structures:
SMILES	Vaccinia Venus	Vaccinia mCherry
N#Cc1cccc(C(=O)OCC(=O)c2ccc3c(c2)NC(=O)CO3)c1	-8%	-13%
Cc1cc(C)n(C(C)CNS(=O)(=O)c2ccc(C)c(C)c2)n1 (stereo not given)	1%	-14%
Cc1ccc(CN=C(Nc2ccccc2)NC2CCCCC2)cc1	-1%	-10%
O=C(c1ccco1)N1CCN(C(=S)Nc2ccc(Br)cc2Cl)CC1	-17%	i
CC(C)C(=O)Nc1ccc2oc(=O)ccc2c1	-17%	i
CCCN(CCC)CCNC(=O)Cn1ncc2c([nH]c3ccc(C)cc32)c1=O	-13%	-14%
COc1ccc(N2CCN(C(=O)CSc3nnc(-c4cccnc4)n3-c3ccc(F)cc3)CC2)cc1	-15%	-14%
Cc1cccc(OCc2nnc(SCC(=O)NCc3ccc4c(c3)OCO4)o2)c1	-8%	-2%
O=C1CC(N2CCOCC2)C(=O)N1c1ccc2c(c1)OCO2 (stereo not given)	-17%	x
CSc1ccccc1C(=O)Nc1ccc(C)cc1C	-9%	-2%
CCCCN1C[C@H](C)[C@@H](CC(=O)NC)C1=O	-7%	0%
O=C(NCc1ccccc1)c1ccc(CSc2nc3cccnc3n2Cc2cccc(F)c2)cc1	-2%	-24%
COC1CC(NC(C)=O)C(OC(=O)c2ccccc2)C(CBr)O1 (stereo not given)	-10%	-1%
CC(Sc1nnc(-c2ccccc2F)n1C)C(=O)Nc1ccc(N2CCOCC2)cc1 (stereo not given)	-8%	-7%
CC(=O)Nc1sc(N/N=C\c2ccccc2F)nc1-c1cccs1	-18%	-7%
O=C(COC(=O)Cc1c[nH]c2ccccc12)Nc1cccc2ccccc12	-8%	-14%
O=C(O)Cc1nc(-c2cccnc2)sc1-c1ccc(Br)cc1	-11%	-14%
CC1CCCN(C(=O)C2(NC(=O)Nc3cccc(F)c3)CCCCC2)C1 (stereo not given)	2%	-12%
CN(C)C1(CNC(=O)c2cc(S(=O)(=O)N3CCOCC3)c(Cl)cc2Cl)CCCCC1	-23%	-26%
CCn1c2ccccc2c2cc(NC(=O)COC(=O)Cc3cn4ccsc4n3)ccc21	10µM*	x
Cc1cccc(C(=O)N[C@H](C(=O)Nc2ccc(C)c(S(=O)(=O)N(C)C)c2)C(C)C)c1	-15%	i
c1csc(-c2cn3ccc4ccccc4c3n2)c1	-12%	u
COc1cccc(CNC(=O)C2CCC(CNS(=O)(=O)c3ccc(Br)s3)CC2)c1 (stereo not given)	-5%	-16%
CCCc1nc(SCC(=O)N2CCc3ccccc3C2)c2ccccc2n1	-27%	u
CCOC(=O)C1=NNC(C(=O)c2ccccc2)C1c1ccc(OC)cc1 (stereo not given)	u	x

Later entries
SMILES	Vaccinia Venus	Vaccinia mCherry
CCn1c(CNC(=O)COc2ccc(C(C)C)cc2)nnc1SCC(=O)Nc1ccc(F)cc1	-18%	-21%
CCc1nc2ccc(C(=O)Nc3cccc(OC)c3)cn2c1N(CC)CCN(C)C	0%	6%
Nc1ccc(S(=O)(=O)N2CCOCC2)cc1	-9%	-11%
COCCN(CCOC)S(=O)(=O)c1ccc(C(=O)Nc2nc3c(s2)CCc2ccccc2-3)cc1	u	u
CN(CC12CC3CC(CC(C3)C1)C2)C(=O)c1ccco1	-18%	i
C[C@H](N)C(=O)NC[C@H]1O[C@@H](n2cnc3c(N)ncnc32)[C@H](O)[C@@H]1O	2%	-13%
CC(Nc1ccc(Br)cc1)C(=O)NC(=O)NC1CCCCC1 (stereo not given)	-21%	-10%
Cc1ccc(NC(=O)NC(=O)c2cnccc2C(F)(F)F)c(C)c1	-8%	-3%
CC1N=C(c2ccccc2)c2cc(Br)ccc2NC1=O (stereo not given)	-21%	i
N/C(=N\N=C\c1ccnc2ccccc12)SC1CC(=O)N(c2ccc(Br)cc2)C1=O (stereo not given)	-8%	x
C[C@H]1CN([C@@H](C)CO)C(=O)c2c(c3ccccc3n2C)-c2ccccc2CO[C@H]1CN(C)C(=O)[C@@H]1CCCN1C	-10%	-3%
O=C(Nc1ccc2c(c1)OCCO2)C1C(c2ccccc2)=Nc2ccccc2N1C(=O)c1cccnc1 (stereo not given)	-21%	u
Cc1cccc(NC(=O)COc2coc(CN3CCN(c4ccccc4)CC3)cc2=O)c1	-3%	-16%
Cc1cc(C(=O)NCC2CCC3(CCN(Cc4ccc5ccccc5c4)CC3)O2)n(C)n1 (stereo not given)	-29%	-8%
COCCn1c(N2CCCC2)nc2c1c(=O)[nH]c(=O)n2C	31%[activator]	-15%
COc1ccccc1N1CCN(C2CCN(C(=O)COc3cccc(C)c3)CC2)CC1	-13%	-19%
Cc1noc(/C=C/c2ccco2)c1S(=O)(=O)N1CCC(C(=O)N2CCc3ccccc32)CC1	-4%	9%
O=C(c1ccc([N+](=O)[O-])cc1)N1c2ncnn2C2(CCCCC2)[C@@H]2CCCC[C@@H]21	-6%	-16%
Cc1ccc(SCCC(=O)N2CCOCC2)cc1	-14%	0%
Cc1ccccc1NC(=O)CSc1nc2cc3c(cc2cc1C)CCC3	-8%	-14%
CCOC(=O)c1noc2ncnc(N3CCC(C)CC3)c12	-1%	-11%
N#CC1=C2Sc3ccccc3N2CCCC1=O	0%	-12%
CCCC1=Nc2cc(C(=O)NC3CCCC3)ccc2Sc2ccc(C)cc21	-22%[7.34 µM]	-27%[7.34 µM]
CCOc1ccc(OCC)c(S(=O)(=O)N2CCOCC2)c1	4%	-3%
CCCn1c(-c2ccc[nH]c2=O)nc2ccccc21	-19%	i
CNc1ccc(C=C2C=CC=C2)cc1	-5%	11%
CC(=O)c1c(-c2ccccc2)c2cc(Cl)ccc2n(C)c1=O	u	u
O=C(NC1CCCCC1)C(c1ccc2ncccc2c1)N(Cc1ccc(F)cc1)C(=O)c1cccs1 (stereo not given)	-11%	i
CCC(=O)N1N=C(c2c(O)n(CCc3ccccc3)c(=O)[nH]c2=O)CC1c1ccc(OC)c(OC)c1 (stereo not given)	-2%	-13%

Looked up one by one from the list above:
SMILES	Vaccinia Venus	Vaccinia mCherry
Nc1ccc(S(=O)(=O)N2CCOCC2)cc1	-9%	-11%
CC(Nc1ccc(Br)cc1)C(=O)NC(=O)NC1CCCCC1 (stereo not given)	-21%	-10%
N#CC1=C2Sc3ccccc3N2CCCC1=O	0%	-12%
